KCNQ2 pot = potentiators of rat KCNQ2 potassium channel | 310,000 compounds, 0.54% hits | AID 2239 | B-score at 10 µM | O88943 | CHO-K1 KCNQ2, FluxOR thallium flux fluorescence; stronger effect = higher value;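 active means fluorescence ratio B-score at least 3 SD of library B-scores, with initial fluorescence B-score within 3 SD, cut at about 5.3 in these data; same plate scores as AID 2156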;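 further: B-score of peak minus minimum over baseline fluorescence ratio after K+ and Tl+ stimulus; positive B-score means potentiation of KCNQ2 with more thallium influx and brighter signal; only the inactives scoring about 0 or higher are listed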
Target sequence (O88943 whole entry, looked up): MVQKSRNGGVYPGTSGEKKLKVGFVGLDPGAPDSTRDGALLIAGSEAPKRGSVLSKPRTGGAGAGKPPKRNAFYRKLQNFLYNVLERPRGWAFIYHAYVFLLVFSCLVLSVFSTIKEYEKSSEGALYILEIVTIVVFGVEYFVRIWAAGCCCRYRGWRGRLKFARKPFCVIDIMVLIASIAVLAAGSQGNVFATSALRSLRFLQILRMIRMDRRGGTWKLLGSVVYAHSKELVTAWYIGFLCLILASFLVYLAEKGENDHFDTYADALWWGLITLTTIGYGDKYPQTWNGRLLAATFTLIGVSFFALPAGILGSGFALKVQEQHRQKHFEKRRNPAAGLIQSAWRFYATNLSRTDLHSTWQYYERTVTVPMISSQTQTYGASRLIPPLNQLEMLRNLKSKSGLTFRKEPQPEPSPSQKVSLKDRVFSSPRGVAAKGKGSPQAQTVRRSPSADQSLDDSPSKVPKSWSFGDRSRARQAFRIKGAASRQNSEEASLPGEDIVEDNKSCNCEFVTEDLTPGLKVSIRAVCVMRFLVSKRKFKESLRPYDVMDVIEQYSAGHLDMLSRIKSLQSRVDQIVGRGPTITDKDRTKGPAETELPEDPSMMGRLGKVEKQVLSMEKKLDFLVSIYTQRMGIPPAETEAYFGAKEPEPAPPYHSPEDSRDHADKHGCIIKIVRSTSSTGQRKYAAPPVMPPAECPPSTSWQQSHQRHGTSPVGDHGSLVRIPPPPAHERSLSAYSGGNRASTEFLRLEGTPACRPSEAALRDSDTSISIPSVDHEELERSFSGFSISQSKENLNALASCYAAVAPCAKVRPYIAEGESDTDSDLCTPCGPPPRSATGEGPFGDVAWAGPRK
KCNQ2 pot baseline = further read-out of KCNQ2 pot, marked with its call; B-score; compound at 10 µM; measured here: initial fluorescence intensity artifact check;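 brightness before thallium and not channel activity; 0 = typical well and far values either way flag optical interference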
The depositor's hits bear a star. Only part of the results is shown; count on the stated rates, not on these rows.

KCNQ2 pot | KCNQ2 pot baseline | SMILES
0.02 | 0.29 | Cc1cc(C)c2c(c1)SC1=NC(c3ccccc3)(C(F)(F)F)NC(=O)N12 (centres undefined)
1.36 | -0.15 | O=c1[nH][nH]cc1C=Nc1ccc(Cl)cc1Cl
1 | -1.7 | CC(=O)n1cc([C@H]2C=C(C(=O)O)O[C@@H](OCCCCO)C2)c2ccccc21
0.18 | -0.51 | O=C(O)c1ccc2c(c1)C(=O)N(c1ccccc1-c1ccccc1)C2=O
0.06 | -1.32 | Cc1ccc2c(C)c(C(=O)Nc3ccc(S(=O)(=O)Nc4onc(C)c4C)cc3)oc2c1
0.86 | -1.36 | CC(=O)c1cccc(NC(=O)Nc2ccccc2)c1
0.88 | 1.39 | Cc1nc(OCc2c(C)noc2C)c2ccccc2n1
1.43 | 1.63 | CCOC(=O)CC(=O)CSc1n[nH]c(=O)[nH]c1=O
0.4 | -0.05 | COCCn1c(SC(C)C(=O)NC2CCCCC2C)nc2ccccc2c1=O (centres undefined)
0.54 | -1.83 | O=C(COC(=O)c1ccc([N+](=O)[O-])s1)NC(c1ccccc1)c1ccccc1
1.62 | 0.01 | CN(Cc1c(C(=O)N/N=C/c2cccc(F)c2)nnn1-c1nonc1N)C1CCCCC1
0.56 | 2.05 | Cc1cc2nc(SCCN3CCOCC3)[nH]c2cc1C
1.28 | 0.33 | CCC1=NN(C(=O)CCc2ccc3c(c2)OCO3)C(O)(C(F)(F)F)C1 (centres undefined)
2.31 | 0.93 | COc1ccc(C(CCN2CCOCC2)c2c(OC)cc(OC)c3c(C)cc(=O)oc23)cc1 (centres undefined)
0.19 | -1.73 | CC(C)CNC(=O)CC(=O)N/N=C/c1ccc(Br)cc1

KCNQ2 pot | KCNQ2 pot baseline | SMILES
0.15 | -1.16 | O=C(Nc1ccccc1C(=O)N1CCOCC1)c1noc2c1CCCC2
0.19 | 1.33 | Cc1cc(=O)oc2cc(OC(=O)c3ccco3)ccc12
0.08 | 0.25 | COc1ccc(-c2noc(N3CCC(C(=O)N4CCN(c5ccccn5)CC4)CC3)n2)cc1
2.87 | 0.03 | CCCc1nc(SCC(=O)N2CCN(c3ccccc3)CC2)c2c(=O)n(C)c(=O)n(C)c2n1
1.15 | -0.14 | CCC(=O)Nc1ncc2c(n1)CC(c1ccco1)CC2=O (centres undefined)
0.2 | -1.09 | Cc1cc(C)cc(C(=O)NC2C(=O)N3C(C(=O)O)=C(CSc4nnc(C)s4)CSC23)c1 (centres undefined)
0.3 | -2.72 | CC(C)(C)c1ccc(/C=C/C(=O)O)s1
0.8 | 0.68 | CCCCn1c(SCC(=O)c2ccc3c(c2)OCCO3)nnc1-c1ccco1
0.06 | -0.05 | COC(=O)c1sccc1NC(=O)c1cccc(F)c1
0.17 | -0.5 | Cc1ccc(S(=O)(=O)CNC(=O)c2ccccc2)cc1
0.16 | 0.87 | Cc1ccc(NC(=O)c2c(C)noc2C)cc1
4.9 | 0.56 | O=C(CC12CC3CC(CC(C3)C1)C2)N/N=C/c1ccncc1
0.25 | -1.85 | CCOc1ccccc1NC(=O)c1cc(S(=O)(=O)NCc2ccco2)ccc1F
1.82 | -0.01 | Cc1ccc(CNC(=O)c2ccc([N+](=O)[O-])o2)cc1
0.32 | -0.77 | COc1ccc(NC(=O)N(CCCN2CCOCC2)Cc2cccnc2)c(OC)c1

KCNQ2 pot | KCNQ2 pot baseline | SMILES
0.01 | -0.97 | COn1c(-c2ccccc2)c(C=O)c2ccccc21
0.01 | 0.78 | NNC(=O)C1CCCN1S(=O)(=O)c1ccc(Cl)cc1 (centres undefined)
0.51 | 0.7 | CC(C)OCCCn1c(=S)[nH]c2cc3c(cc2c1=O)OCO3
0.75 | -0.01 | O=C(NC1CCCCC1)N1CCCC(c2nc(-c3ccc(S(=O)(=O)N4CCCC4)cc3)no2)C1 (centres undefined)
3.16 | -0.99 | S=C(NCCN1CCOCC1)Nc1ccc(Cl)c(Cl)c1
1.82 | 0.8 | CC(=O)Nc1sc2c(c1C#N)CCC(C)C2 (centres undefined)
0.27 | 0.7 | Cc1cc(C)cc(NC(=O)Nc2cccnc2)c1
1.26 | -0.14 | CN(CC(=O)Nc1cccc2c1CCCC2)S(=O)(=O)c1ccccc1
0.63 | -0.22 | Nn1c(SCC(=O)Nc2ccc3c(c2)OCO3)nnc1-c1ccncc1
0.25 | -0.52 | COC(=O)c1ccc(CSc2nnnn2-c2ccccc2)o1
2 | -0.37 | Cc1ccccc1C(=O)Nc1cccc(-c2nnc(SCC(=O)O)n2C)c1
0.56 | -1.27 | CCOC(=O)C(Cc1ccc(O)cc1)NC(=O)CNC(=O)C(CC(C)C)NC(=O)OC(C)(C)C (centres undefined)
0.46 | -3.39 | C#CCSc1nc(C)cc(C(=O)OCC)c1C#N
0.01 | -0.08 | CCCNC(=O)CNC(=S)N(Cc1cc(OC)c(OC)c(OC)c1)C1CCCC1
0.45 | 0.07 | Cc1c(C(=O)N2CCN(S(C)(=O)=O)CC2)oc2ccccc12

KCNQ2 pot | KCNQ2 pot baseline | SMILES
0.54 | -0.12 | COc1ccc(C2=NN(CC(=O)Nc3ccccc3C)C(=O)CC2)cc1
1.24 | 1.11 | CC1CN(c2ccc(C(=O)c3ccccc3C(=O)O)cc2[N+](=O)[O-])CC(C)O1 (centres undefined)
1.19 | -0.71 | O=c1[nH]c2cc3c(cc2cc1CN(CCCO)Cc1nnnn1Cc1ccc(F)cc1)OCO3
0.04 | -0.41 | CN(C)CCOC(=O)c1ccc2c(c1)S(=O)(=O)c1ccccc1C2=O
4.46 | -0.82 | COc1cccc(NC(=O)C2CCCCC2)c1
0.23 | 2.43 | Cc1cccc(N2CCN(C(=S)Nc3ccc4nc(N5CCOCC5)cc(C)c4c3)CC2C)c1 (centres undefined)
0.55 | -0.71 | c1ccc(-c2cnnc(-c3ccccn3)n2)cc1
0.53 | 0.04 | O=c1[nH]c2ccccc2cc1CN(CC1CCCO1)S(=O)(=O)c1ccc(Cl)cc1 (centres undefined)
0.39 | -0.59 | CSc1cccc(-n2ccc(=O)c(C)c2C)c1
0.13 | 0.76 | N#C/C(=C\c1ccc(OCc2ccc(C(=O)O)cc2)cc1)C(=O)N1CCOCC1
0.02 | -1.11 | Cc1cc(N2CCN(c3ccc([N+](=O)[O-])c4cccnc34)CC2)c2ccccc2n1
0.78 | -0.01 | CC(C)N1CCC(=NNC(=O)c2cccs2)CC1
1.68 | -0.29 | COc1ccc(C(=O)NCC(=O)N2CCCC(C(F)(F)F)C2)cc1OC (centres undefined)
0.13 | 0.3 | CC(=O)/C(C(=N)N1CCN(c2cccc(Cl)c2)CC1)=C(\C)O
1.57 | 0.07 | CCCCN(CC)CCNC(=O)Cn1cc2c(n1)-c1c(oc(C(=O)N3CCCC3)c1C)CC2

KCNQ2 pot | KCNQ2 pot baseline | SMILES
1.03 | 0.21 | CCCCCCN1CC(=O)N2[C@@H](Cc3c([nH]c4ccccc34)C2(C)C)C1=O
1.79 | -0.46 | CCn1cc(C(=O)N(C)c2ccccc2F)c2cc(OC)c(OC)cc2c1=O
2.52 | -1 | O=C(NCC(c1ccco1)N1CCOCC1)c1ccc(F)cc1 (centres undefined)
0.23 | -0.67 | Cc1cccc(OCCCN2C(=O)C(=O)c3cc(C)ccc32)c1
0.3 | 1.91 | CC(CNC(=O)c1cc(COc2ccc3ncccc3c2)on1)c1ccccc1 (centres undefined)
0.88 | -1.09 | O=C(NCc1ccc(F)cc1)C(=O)c1cn(CC(=O)N2CCCC2)c2ccccc12
0.43 | 1.84 | Cc1ccccc1N/C=C/C(=C(C#N)C#N)N(C)C
1.09 | 0.73 | CCCCn1cnc2c1c(=O)[nH]c(=O)n2CCCC
2.54 | -0.08 | CC(C)Cn1c(N)c(C(=O)COC(=O)/C=C/c2cccs2)c(=O)n(C)c1=O
2.57 | -3.04 | CCOC(=O)N1CCC(NC(=O)CCC(=O)N2CCOc3ccccc32)CC1
0.85 | -0.79 | CC(C)(C)NC(=O)NCc1cccnc1
0.64 | 0.01 | CC(C)(C)NC(=O)CSc1nnc(-c2ccco2)n1Cc1ccco1
0.39 | 1.14 | O=C(c1cc2ccccc2oc1=O)N1CCN(CCc2ccccc2)CC1
0.01 | 1.05 | O=C(NCCc1ccccc1)c1ccc(OCCOc2ccccc2)cc1
0.68 | 1.37 | O=C(NC(=S)NCC1CCCO1)c1ccc([N+](=O)[O-])cc1 (centres undefined)

The list goes on; the last four above are carried over.
KCNQ2 pot | KCNQ2 pot baseline | SMILES
0.64 | 0.01 | CC(C)(C)NC(=O)CSc1nnc(-c2ccco2)n1Cc1ccco1
0.39 | 1.14 | O=C(c1cc2ccccc2oc1=O)N1CCN(CCc2ccccc2)CC1
0.01 | 1.05 | O=C(NCCc1ccccc1)c1ccc(OCCOc2ccccc2)cc1
0.68 | 1.37 | O=C(NC(=S)NCC1CCCO1)c1ccc([N+](=O)[O-])cc1 (centres undefined)
0.5 | -0.21 | O=C(NC(=O)c1cc(OCC(F)(F)F)ccc1OCC(F)(F)F)Nc1ccccc1
0.67 | -1.1 | Cc1ccc2[nH]c(=O)c(C(c3nnnn3C3CCCC3)N(Cc3cccnc3)Cc3ccco3)cc2c1 (centres undefined)
0.64 | -2.33 | O=S(=O)(NCCc1csc(-c2cccnc2)n1)c1cccc(F)c1
0.51 | 0.12 | Brc1ccccc1OCCCN1CCCCCC1
0.68 | -0.48 | O=C1N(c2ccccc2)CCN1c1ccccc1
0.96 | -1.48 | CCOc1ccc(S(=O)(=O)NC2CCCCCC2)cc1
2.72 | -0.12 | O=C(CSc1ccccc1)NCc1ccc(F)cc1
0.16 | -0.33 | COc1ccccc1NS(=O)(=O)c1cc(NC(=O)c2ccccc2F)ccc1N1CCOCC1
0.41 | -0.11 | CCc1cc2c3c([nH]c2cc1S(=O)(=O)NCCCOC)CC(C)(C)CC3=O
0.46 | -2.96 | N#Cc1ccc(C23CC4(C2)[C@H](CN(CC2CCCCC2)[C@@H]4c2ccccc2)C3c2ccccc2)cc1 (some centres undefined)
0.05 | -0.53 | CCOCCCN(C(=O)c1snc(C(N)=O)c1N)C(C(=O)NC1CCCC1)c1ccc(OC)cc1 (centres undefined)
0.99 | -0.72 | Nc1nnc(SCC(=O)N2CCN(c3ccccc3)CC2)n1-c1ccccc1
0.46 | 1.7 | CCCC(=O)Nc1nnc(SCC(=O)N2CCN(c3ccccc3)CC2)s1
0.83 | 0.07 | CCOC(=O)N1CCN(C(=O)c2ccc(Cl)c(S(=O)(=O)N3CCOCC3)c2)CC1
0.52 | -0.35 | COc1ccc(S(=O)(=O)NCc2csc(-c3cccnc3)n2)cc1

KCNQ2 pot | KCNQ2 pot baseline | SMILES
0.2 | 0.86 | N#CCCn1cc(/C=N/O)c(-c2ccc(F)cc2)n1
0.1 | -0.08 | Cc1nn(C)c(C)c1/C=C/C(=O)c1ccccc1
0.49 | -1.54 | CCN(CC(=O)Nc1cccc(OC)c1)C(=O)c1ccc(C)s1
0.74 | -0.97 | COc1ccc(S(=O)(=O)Cc2ccc(C(=O)N3CCN(c4ccccc4F)CC3)o2)cc1
0.51 | 2.07 | O=C(Cn1nnc2ccccc21)N/N=C/c1ccco1
0.68 | -0.02 | COc1ccc(-c2nsc3c(N4CCN(C(=O)c5ccco5)CC4)ncnc23)cc1
1.02 | -1.91 | COc1cc(OC)cc(C(=O)N[C@H](C(=O)Nc2nc3ccccc3[nH]2)C(C)C)c1
1.16 | -0.02 | COc1ccccc1NC(=O)c1cc[n+](C)cc1
0.5 | -0.44 | COc1cc(C2NC(=O)N(C)C3=C2C(=O)CCC3)cc(OC)c1OC (centres undefined)
0.92 | 1.43 | CCc1nn(CCCC(=O)N2CCN(c3ccc(OC)cc3)CC2)c(=O)c2cc3occc3n12
3.53 | 1.23 | Cc1cccc(NC(=S)NC(=O)c2cc(-c3ccccc3)nc3ccccc23)c1
1.07 | -1.33 | Cc1cc(Nc2ccccc2)nc(N)n1
0.99 | -0.03 | O=c1cc(CN2CCc3ccccc32)nc2sccn12
0.06 | 0.07 | O=C(CS(=O)(=O)c1ccc2ccccc2c1)Nc1ccccc1Cl
0.28 | 0.01 | CCOC(=O)CCc1c(C)c(C#N)c2nc3ccccc3n2c1-n1ccnc1

A different layout for 3 compounds above:
mol: Cc1cc2nc(SCCN3CCOCC3)[nH]c2cc1C
  KCNQ2 pot: 0.56
  KCNQ2 pot baseline: 2.05

mol: CCC1=NN(C(=O)CCc2ccc3c(c2)OCO3)C(O)(C(F)(F)F)C1 (centres undefined)
  KCNQ2 pot: 1.28
  KCNQ2 pot baseline: 0.33

mol: COc1ccc(C(CCN2CCOCC2)c2c(OC)cc(OC)c3c(C)cc(=O)oc23)cc1 (centres undefined)
  KCNQ2 pot: 2.31
  KCNQ2 pot baseline: 0.93

Sorted by value in KCNQ2 pot baseline (smallest number first): some entries from above.
structure | KCNQ2 pot baseline
CC(=O)c1cccc(NC(=O)Nc2ccccc2)c1 | -1.36
CCC1=NN(C(=O)CCc2ccc3c(c2)OCO3)C(O)(C(F)(F)F)C1 (centres undefined) | 0.33
CCCCn1cnc2c1c(=O)[nH]c(=O)n2CCCC | 0.73
N#CCCn1cc(/C=N/O)c(-c2ccc(F)cc2)n1 | 0.86
Cc1cccc(NC(=S)NC(=O)c2cc(-c3ccccc3)nc3ccccc23)c1 | 1.23

Additional records follow.
KCNQ2 pot | KCNQ2 pot baseline | SMILES
0.01 | -0.64 | Cc1ccc2c(c1)c1nnc(SCC(=O)N3CCCc4ccccc43)nc1n2CC(=O)O
0.09 | -0.05 | Cc1ccc(NC(=O)N2CCCCCC2)cc1C
0.23 | 1.37 | CC(=O)Nc1cccc(NC(=O)c2cccc(OCc3ccccc3)c2)c1
0.03 | 0.38 | CCCC(=O)Nc1ccccc1NC(=O)C1CCCCC1
1.78 | -0.09 | CCOc1cc(/C=N/N=C2/NC(=O)C(CC(=O)O)S2)ccc1OCc1ccccc1Cl (centres undefined)
0.01 | -0.81 | O=C1NC[C@H](Cc2ccccc2)N(CC2CCCCC2)C1=O
0.26 | 0.8 | Cc1ccccc1NC(=O)c1nn(-c2ccc(F)c(F)c2)ccc1=O
0.22 | -0.77 | N#C/C(=C\Nc1ccc(Cl)cn1)S(=O)(=O)c1ccccn1
